# Assay outcomes (PubChem)
# T cruzi inh – T. cruzi replication inhibition; hit rate 1.4% among 300,000; inhibition, % (concentration not given with the values); T. cruzi beta-gal in NIH3T3, luminescence, 90 h;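 active means mean inhibition across valid replicates above about 55%, limit read from the data; inconclusive means mean below that limit but half or more replicates reach it; inactive means mean below it, under half of replicates reach it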;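 further: signal also drops with host cell toxicity which is not excluded here; 0% = plate median of DMSO wells and 100% = zero luminescence signal; higher percent means less beta-gal luminescence so fewer parasites; stock transfer was 50 nL into about 50 µL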
# Calb FLC – C. albicans growth modulation with fluconazole; C. albicans CaCi-2 (fluconazole-resistant clinical isolate) + fluconazole, Alamar Blue growth, 48 h; growth inhibition, % (no concentration beside the values); hit rate 0.57% among 300,000;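 active means most replicates above 75%; inconclusive means exactly half above 75%; inactive means most below 75%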;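 further: all wells also contain fluconazole at 8 µg/ml as a sub-toxic cotreatment; 0% = median of DMSO wells and 100% = median of geldanamycin control wells; wells of about 8 µL received 7.5 nL stock; the first replicate is given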
# RanGTP-Impb inh – disruptors of Ran-importin-beta complex formation – biochemical, FRET, CFP-Ran, YFP-importin-beta, homogeneous, primary screen | hit rate 1.1% among 300,000 | inhibition, % (no concentration beside the values) | cell-free CFP-Ran/YFP-importin-beta FRET ratio;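 active means most replicates above 15%; inconclusive means exactly half above 15%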;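 further: 0% = DMSO wells and 100% = Ran loaded with GDP instead of GTP; wells of about 40 µL received 100 nL stock; the first replicate is given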
# UCH37 inh – blocks the human deubiquitinase UCH37. hit rate 0.33% among 330,000. Q9Y5K5. purified proteasome/UCH37, Ub-AMC cleavage fluorescence. inhibition, % (no concentration beside the values);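 active means mean of two replicates above 20%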;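 further: 0% = compound-free wells with enzyme and 100% = wells lacking proteasome; stock transfer was 100 nL into about 20 µL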
#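 Assay system: Proteasome-bound UCH37. Buffer or medium: pH 7.4 Tris-HCl (50 mM) with ovalbumin, ATP-MgCl2, DTT. Incubation: 30 min preincubation with enzyme, 25 min cleavage at room temperature. Measured by: fluorescence, ex 355 nm, em 460 nm. Read-out basis: percent inhibition. Control set: wells without proteasome as full block, compound-free enzyme plus substrate as uninhibited.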
# A1 inh – inhibitors of the anti-apoptotic protein A1, read as caspase activation; caspase activation, % (test concentration not listed); hit rate 0.066% among 330,000; MEF A1-2A-BIM cells, Caspase-Glo 3/7 luminescence, 3 h; percent of clofoctol response, vehicle zero; AID 2462;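 active means over half of replicate activation scores above 10%, or exactly half above 10 with the replicate mean above 10; inconclusive means replicate mean below 10 yet half the replicates above 10; inactive means over half of replicates below 10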;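 further: wells of about 30 µL received 50 nL stock; many hits fall short of the cut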
# LANA-H2A inh – blocks KSHV LANA binding to histone H2A/H2B. cell-free LANA-H2A/H2B peptide, fluorescence polarization. hit rate 0.6% among 320,000. AID 2629. Q9QR71. inhibition, % (concentration not given with the values); in the data active means inhibition mostly above about 10%, no sharp cut-off; inactive means mostly below about 6.7%;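 further: stock transfer was 7.5 nL into about 10 µL; 0% = median of vehicle wells and 100% = median of positive control wells; one replicate is shown; the record names a cut of 25% in any replicate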
# Target sequence (Q9QR71 whole entry, looked up): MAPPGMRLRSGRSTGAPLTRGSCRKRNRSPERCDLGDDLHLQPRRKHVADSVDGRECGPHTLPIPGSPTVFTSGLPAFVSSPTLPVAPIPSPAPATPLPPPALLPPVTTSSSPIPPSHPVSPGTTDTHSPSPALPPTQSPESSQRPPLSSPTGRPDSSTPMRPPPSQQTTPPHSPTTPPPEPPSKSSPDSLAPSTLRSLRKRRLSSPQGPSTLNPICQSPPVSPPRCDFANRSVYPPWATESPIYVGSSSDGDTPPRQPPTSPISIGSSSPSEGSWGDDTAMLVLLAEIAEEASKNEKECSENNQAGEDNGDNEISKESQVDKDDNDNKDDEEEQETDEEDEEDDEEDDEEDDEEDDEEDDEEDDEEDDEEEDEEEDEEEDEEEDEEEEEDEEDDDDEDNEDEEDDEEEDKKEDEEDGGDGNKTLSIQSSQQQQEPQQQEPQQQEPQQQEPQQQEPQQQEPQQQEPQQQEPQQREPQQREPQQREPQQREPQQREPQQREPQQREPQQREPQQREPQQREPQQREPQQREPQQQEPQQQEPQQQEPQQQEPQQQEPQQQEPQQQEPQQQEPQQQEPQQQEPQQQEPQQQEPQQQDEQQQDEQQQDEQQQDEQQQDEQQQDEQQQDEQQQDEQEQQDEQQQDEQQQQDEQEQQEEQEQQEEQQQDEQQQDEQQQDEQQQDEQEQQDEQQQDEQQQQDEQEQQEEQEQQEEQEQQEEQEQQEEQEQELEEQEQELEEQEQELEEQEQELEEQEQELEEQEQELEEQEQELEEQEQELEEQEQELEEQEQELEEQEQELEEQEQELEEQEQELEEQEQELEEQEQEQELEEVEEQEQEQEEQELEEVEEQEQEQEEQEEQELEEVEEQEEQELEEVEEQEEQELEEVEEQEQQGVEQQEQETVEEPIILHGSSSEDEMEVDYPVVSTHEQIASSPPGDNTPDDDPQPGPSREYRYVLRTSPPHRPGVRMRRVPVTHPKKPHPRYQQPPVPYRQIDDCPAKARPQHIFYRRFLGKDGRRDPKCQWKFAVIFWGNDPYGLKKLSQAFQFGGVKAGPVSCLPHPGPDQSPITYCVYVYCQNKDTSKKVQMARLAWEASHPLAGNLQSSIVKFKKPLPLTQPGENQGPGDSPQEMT
# B2AR ag – agonists of human beta-2 adrenergic receptor inducing internalization; response, % (test concentration not listed); hit rate 0.43% among 340,000; P07550; Am2.2-beta2AR cells, FAP receptor internalization, flow cytometry; reference of the scale not given here;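 active means response above a set limit, near 3 SD of response in nonfluorescent compounds, cut at about 42% in these data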;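 further: stock transfer was 100 nL into about 11 µL; a reference agonist was the positive control; negative values mostly stem from fluorescent compounds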
# Beta cell apopt – blocks beta cell apoptosis | INS-1E cytokine-induced death, ATP luminescence, 48 h; percent of positive-control rescue, neutral wells zero | protection from apoptosis, % (no concentration beside the values) | hit rate 0.8% among 300,000 | AID 435005;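 active means all replicates at 75% or more, or half of them and the mean; inconclusive means half reach 75% but not the mean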;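 further: 0% = cytokine-treated negative control wells and 100% = positive control rescue; higher means more ATP so stronger rescue from cytokine killing; wells of about 40 µL received 100 nL stock; the first replicate is given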
# Starred values were filed as active, the others as inactive; ? = inconclusive; . = not tested or not shown.
SMILES,T cruzi inh,Calb FLC,RanGTP-Impb inh,UCH37 inh,A1 inh,LANA-H2A inh,B2AR ag,Beta cell apopt
CC(=O)c1cccc(NC(=O)COC(=O)C2CCCN2C(=O)c2cccs2)c1 (stereo not given),.,.,.,2.8,0.3,4.0,-4,-1
[O-][N+]12CCCCC1CCCC2CO (stereo not given),-13,2,1.7,-1.2,-1.2,1.9,-8,-6
CSc1ccc(COC(=O)CCS(=O)(=O)c2ccc(C)cc2)cc1,-7,-3,-1.0,3.3,0.2,-1.4,1,-2
COc1ccc(N2CCN(C(=O)CCS(=O)(=O)c3ccc4c(c3)CCN4C(=O)C3CC3)CC2)cc1,3,.,-0.3,4.9,0.8,-8.0,-12,1
Cc1ccc(S(=O)(=O)Nc2ccc3c(c2)C(=O)N([C@H](C)CO)C[C@H](C)[C@@H](CN(C)Cc2ccccc2)O3)cc1,.,.,.,0.7,-0.1,-6.5,-5,-5
CCOC(=O)c1ccc(N/C(=N\S(=O)(=O)c2ccccc2C)c2ccccc2)cc1,20,3,0.2,.,0.8,2.8,4,-11
O=C(NC1CCCCCC1)c1c(F)c(F)c(F)c(F)c1F,-5,1,0.3,0.3,-0.7,-3.2,-7,4
COc1ccc(-c2nc(CCl)cs2)cc1OC,-10,0,3.2,-14,0.2,2.0,10,0
Nn1cnc2c(c1=O)C1(CCCCC1)Cc1ccccc1-2,3,-18,26*,3.9,0.2,-3.0,-2,.
Cc1cccc(C)c1NC(=O)C(NC(=O)c1ccccn1)c1ccc([N+](=O)[O-])cc1 (stereo not given),-3,0,-1.5,8.0,1.5,-2.2,4,0
C/C(=N\O)c1cc(Cl)cc(Cl)c1O,.,77*,4.2,.,0.4,2.0,1,-10
CC1(C)CC(=O)C(C=Nc2ccc(O)cc2)=C(O)C1,-7,7,-2.3,11,-0.9,3.7,0,3
Cc1ccccc1NC1=NC(C)(C)N=C(N)N1,-4,-5,-2.6,4.8,0.4,2.4,-1,-7
O=C1CCCC2=C1C(c1ccc(O)c(O)c1)Nc1ccc3ncccc3c12 (stereo not given),5,-2,4.2,5.2,-0.1,1.5,-11,-6
O=C(/C=C/c1ccccc1)N1CCC(N2CCC(C(=O)N3CCOCC3)CC2)CC1,4,-2,1.2,0.4,0.2,-3.8,0,0
COC(=O)c1cnn(-c2ccc(F)cc2F)c1/C=N/NC(N)=S,1,7,-2.4,.,-0.2,-3.8,16,-5
NS(=O)(=O)c1ccc(NC(=O)CCC(=O)N2CCOCC2)cc1,-3,-1,0.2,.,-0.1,-1.8,1,-9
CC(=O)c1c(C)nc2sc3c(=N)n(N)cnc3c2c1-c1ccc(Cl)cc1,26,4,-1.1,2.6,-0.5,-0.7,-4,0
O=C(CCl)Nc1ccccc1C(=O)NCc1ccccc1,18,35,0.6,3.7,0.6,0.5,7,-3
O=C(NCCN1CCCC(O)C1)c1cc(COc2c(F)cccc2F)on1 (stereo not given),-3,-2,-0.9,1.5,0.3,1.8,-3,-8
O=C(c1ccccc1)c1cccn1CC(=O)N1CCN(C2CCCCC2)CC1,21,6,1.9,-0.9,-0.1,1.0,-11,5
CC(C)(C)OC(=O)N1CCN(C(=O)c2nc[nH]c2C(=O)N2CCN(c3ccccc3)CC2)CC1,.,.,.,2.4,-0.9,-1.2,1,-7
CCCC(=O)Nc1nc2ccc(NC(=O)c3ccc(Br)o3)cc2s1,3,-8,-1.3,-1.7,-0.2,-2.4,9,8
CCN1C(=O)/C(=C\N(C)C)c2ccccc21,-5,4,3.5,11,-0.5,-2.4,-6,-5
O=c1c2ccccc2nc2c3ccccc3cnn12,10,-12,0.8,-69,-3.1,0.5,-7,7
CCOC(=O)c1cc(C)n(CCCN2CCOCC2)c1C,-4,-3,-1.4,2.1,-0.4,-0.5,-8,-6
COc1ccccc1NS(=O)(=O)c1cc(N=N/C(C(=O)Nc2ccc(Cl)cc2)=C(/C)O)ccc1C,.,.,.,10.0,-1.1,-2.5,0,-6
CC(C)(C)c1ccc(OCCn2ccccc2=O)cc1,8,20,5.5,3.0,0.1,-4.8,2,4
COc1cc(NC(=S)NCCc2ccc(S(N)(=O)=O)cc2)c(OC)cc1Cl,4,4,3.8,0.7,0.6,8.0,2,-1
CCc1ccc(C(=O)Cc2cc3cccc(OC)c3oc2=O)cc1,4,-3,0.9,0.3,-0.2,2.5,-4,2
Cn1nc(C(C)(C)C)cc1C(=O)NNC(=O)c1cccc(Cl)c1,0,-4,-0.6,-0.2,0.4,-1.6,-8,.
O=C(NC1CCN(C(=O)Nc2cccc(Cl)c2)CC1)C1CCCCC1,-10,46,7.9,2.1,0.2,-0.7,4,7
COc1ccc(Cc2c(O)nc(SC)n(C(C)=O)c2=O)cc1,-5,-10,-2.6,1.2,-1.4,0.5,11,-1
CCOC(=O)N1CCN(C(=O)c2ccc(SC)cc2OC)CC1,-3,-2,-1.6,0.1,?,-6.9,-8,-6
O=C(C1=C(O)C(=O)N(CCOCCO)C1c1cccs1)c1cccs1 (stereo not given),1,0,?,13,-0.1,0.7,1,-8
C=CCn1c(O)c(N=NC(=O)c2ccc3c(c2)OCO3)c2ccccc21,4,-12,6.1,3.4,-2.7,2.2,-5,8
Cc1cc(C)cc(NC(=O)CS(=O)(=O)c2ccccc2)c1,8,12,3.2,4.2,0.3,-1.4,-8,.
CCN(CC)S(=O)(=O)c1cc(NS(=O)(=O)c2cccs2)ccc1C,.,.,.,-0.6,0.3,2.9,-2,-8
CC(=O)Nc1ccc(NC(=O)C(C)OC(=O)c2ccccc2C(=O)c2ccc(Cl)c([N+](=O)[O-])c2)cc1 (stereo not given),-9,3,5.5,5.7,0.6,.,21,-2
CC(=O)OC1CC(C)(C)N(OC(=O)CCCN2C(=O)c3ccccc3C2=O)C(C)(C)C1,-2,-3,-2.0,-0.6,0.8,-3.6,7,2
Cn1ncc2c(N3CCOCC3)ncnc21,-18,-3,5.2,1.9,0.8,3.2,2,-1
Cc1ccc(S(=O)(=O)N(CC(=O)NCCSCc2ccco2)c2cc(C)ccc2C)cc1,14,1,-0.1,5.4,2.7,9.7,-5,4
CC(=O)Nc1ccc(S(=O)(=O)N2CCOCC2)cc1,-5,-7,3.4,6.8,0.2,-0.5,2,-5
COc1ccccc1NC(=O)Cn1nnc(C(=O)Nc2ccccc2)c1N,10,-4,6.5,-0.4,0.7,-3.5,-6,-12
CCN(CC)C(=O)CSc1nnc2nnc3cc(Cl)ccc3n12,59*,?,-33,3.1,-0.5,5.8,-14,-9
CCCCN1CC(O)=C(c2nc3ccccc3[nH]2)C1=N,-13,41,-0.3,-2.2,-0.7,13,-4,5
O=C(CN1CCCCCC1)NCCc1ccc(F)cc1,.,.,.,0.2,0.5,1.5,4,-13
O=C(c1ccc(Cl)c(NC2=NC3CS(=O)(=O)CC3S2)c1)N1CCN(c2ccccc2)CC1 (stereo not given),-30,1,6.1,3.5,0.6,4.1,5,-7
C/C(=N/NC(=O)c1cccs1)c1cccc(NC(=O)C2CC2)c1,-6,5,-8.6,.,0.6,-2.0,-1,-2
O=C(CN(Cc1ccco1)C(=O)CNS(=O)(=O)c1ccc(Cl)cc1)NCc1ccco1,13,2,3.6,6.6,0.2,-5.9,-2,-3
# (continued)
SMILES,T cruzi inh,Calb FLC,RanGTP-Impb inh,UCH37 inh,A1 inh,LANA-H2A inh,B2AR ag,Beta cell apopt
COc1ccc(Nc2nc(-c3cccc([N+](=O)[O-])c3)nc3ccccc23)cc1,65*,-5,0.4,6.0,-0.5,-5.2,10,11
O=C(Cn1nnc2ccccc21)NNC(=S)NC1CCCCC1,-9,12,0.4,1.9,-1.2,3.5,4,-1
CN(C)c1ccc(-c2ccc([C@H]3[C@@H]4C=CCC[C@@]4(C)C(=O)N3Cc3ccccc3)c(F)c2)cc1,27,2,2.1,-8.6,0.5,-0.7,5,19
CC(C)N(Cc1ccccc1)S(=O)(=O)c1ccc(Cl)nc1,-3,1,-7.1,4.6,-0.2,1.9,2,-1
Cc1ccc(-c2nn(-c3ccccn3)c(=O)c3ccccc23)cc1,-4,-17,-1.4,1.6,-0.8,1.4,-14,-3
CC1Cc2cc(/C(O)=C3/C(=O)C(=O)N(CCCn4ccnc4)C3c3ccncc3)ccc2O1 (stereo not given),-11,-9,-1.5,8.5,1.1,-1.5,4,-1
COC(=O)c1cc(COc2ccc3c4c(c(=O)oc3c2)CCCC4)c(C)o1,-6,9,?,-31,1.3,-0.3,4,3
COc1ccc(C(=O)/C=C/c2ccc(OCc3ccccc3)cc2)cc1CSCC(=O)O,-4,-9,-7.8,-30,-1.5,9.4,30,3
O=C(Nc1nnc(SCc2c(Cl)cccc2Cl)s1)C1CCCO1 (stereo not given),-3,-22,3.0,0.6,0.1,-6.8,11,-7
COc1ccc(NC(=O)CN2C(=O)NC(C)(c3ccc(C)cc3)C2=O)c([N+](=O)[O-])c1 (stereo not given),-8,-1,0.2,1.9,0.2,4.3,19,-3
COc1ccc(-c2ccnc(SCC(=O)c3ccc(Br)cc3)n2)cc1,13,-2,0.3,5.1,-0.4,-3.9,-7,-6
CCC(C(=O)OCC(=O)Nc1c(C)n(C)n(-c2ccccc2)c1=O)c1ccccc1 (stereo not given),-4,?,-1.9,6.1,0.0,0.9,-7,.
CCCn1c(SCC(=O)N2CC(=O)Nc3ccccc32)n[nH]c1=O,.,.,.,3.9,2.2,-2.1,0,-6
COCC(=O)Nc1cc(C(=O)OC)cc(C(=O)OC)c1,-26,12,-0.2,0.8,0.1,-2.3,4,-1
Clc1ccc(CN2CCC(c3nc4ccc(Cl)cc4[nH]3)CC2)cc1,51,2,-2.4,6.2,0.9,0.2,0,6
O=C(NCc1ccccc1)NC1CC2CCC(C1)N2Cc1ccco1 (stereo not given),-4,45,-1.3,0.4,0.1,-2.7,-9,2
COC(=O)Cc1ccc(NC(=S)N2CCCCC2C)cc1 (stereo not given),-25,-16,-4.7,0.5,0.5,1.5,16,-2
COc1ccc(C2c3c(ncn(CCN4CCOCC4)c3=N)Oc3ccc4ccccc4c32)cc1 (stereo not given),20,1,1.3,5.6,-1.0,0.0,15,-1
O=C(c1cncc(Br)c1)N1CCN(S(=O)(=O)c2ccc3ccccc3c2)CC1,.,.,.,2.9,-0.3,3.7,3,-6
Cc1nc(SCC(=O)Nc2ccc(C)c(F)c2)c2oc3ccccc3c2n1,-2,-3,-0.8,4.2,1.6,-0.7,-2,3
Fc1ccc(N2CCN(C(c3cccs3)c3nnnn3C3CCCC3)CC2)cc1 (stereo not given),27,2,0.6,0.2,0.1,-0.9,-2,5
Cc1cc(OCC(=O)Nc2ccncc2)ccc1Br,-17,-3,1.7,2.2,-0.3,-2.9,-6,-4
Cc1cccc(C(=O)O/N=C(\N)Cc2cccc3ccccc23)c1,0,12,-1.2,4.4,1.2,-1.4,3,-1
O=C(Nc1nnc(-c2cccnc2)o1)c1ccccc1Cl,-5,2,1.7,0.7,-0.3,-5.4,2,-3
